# Screens from PubChem.
# Env fusion inh – inhibitors of HIV Env-mediated cell fusion; AID 651610; inhibition, % at 12.3 µM; actives 1.1% (n = 360,000); HeLa-JRFL Env/CEM21 cell fusion, luciferase;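 active = mean replicate inhibition score of at least 50 and every replicate individually at or above 50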;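 also: 0% = plate neutral controls and 100% = maraviroc near 300 nM; one replicate is shown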
# * = called active by the depositor; [ ] = remark or other dose.
smiles | Env fusion inh
CO[C@H]1CN(C)C(=O)c2cc(NC(=O)c3ccc(F)cc3)ccc2OC[C@@H](C)NC[C@@H]1C | 19[16.7 µM]
CN1C(=O)c2cc(NC(=O)Cc3cccs3)ccc2OC[C@@H]2O[C@H](CC(=O)NCc3ccc(-c4ccccc4)cc3)CC[C@H]21 | -8[16.7 µM]
CO[C@@H]1CN(C)C(=O)c2ccc(NC(=O)c3cc(C)on3)cc2OC[C@@H](C)N(S(=O)(=O)c2cccc(Cl)c2)C[C@H]1C | 17[16.7 µM]
CCCC#Cc1ccc2c(c1)O[C@H](CN(C)C(=O)CN(C)C)[C@@H](C)CN([C@H](C)CO)S2(=O)=O | 1[16.7 µM]
C[C@@H]1CN([C@@H](C)CO)C(=O)c2ccccc2-c2ccccc2CO[C@@H]1CN(C)C(=O)[C@@H]1CCCN1C | 8[16.7 µM]
C=CC(=O)Nc1cccc(Oc2nc(Nc3ccc(N4CCN(C)CC4)cc3OC)ncc2Cl)c1 | 5
COc1ccccc1NC(=O)N[C@@H]1CC[C@H](CCNS(=O)(=O)c2ccccc2)O[C@@H]1CO | -6[16.7 µM]
CCCN(CCC)Cc1cc(=O)oc2ccccc12 | -17
CO[C@H]1CC[C@@H]2CCOc3c(C#N)cccc3C(=O)N(C)C[C@@H](OC)[C@H](C)C(=O)N(C)C[C@@H]1O2 | 10[16.7 µM]
COc1cccc(NC(=O)N[C@@H]2CC[C@@H](CC(=O)N3CCCCC3)O[C@@H]2CO)c1 | -1[16.7 µM]
O=C(C[C@@H]1C[C@@H]2c3cc(NC(=O)Cc4ccncc4)ccc3O[C@@H]2[C@@H](CO)O1)NCCN1CCCCC1 | 2[16.7 µM]
CC(C)COC(=O)N(C)C[C@@H]1OCc2ccccc2-c2ccccc2C(=O)N([C@H](C)CO)C[C@@H]1C | 11[16.7 µM]
CN1C(=O)c2cc(NC(=O)C3CCOCC3)ccc2OC[C@@H]2O[C@@H](CC(=O)NCC3CCCCC3)CC[C@H]21 | 2[16.7 µM]
CO[C@@H]1CN(C)C(=O)c2ccc(NS(=O)(=O)c3ccc(F)cc3)cc2OC[C@H](C)NC[C@@H]1C | 3[16.7 µM]
CCc1c(Cc2cccc(F)c2)ncn1CCc1ccccc1OC | 24
O=C(C[C@@H]1CC[C@H](NC(=O)C2CCOCC2)[C@H](CO)O1)NCc1ccccc1Cl | 33[16.7 µM]
C[C@H](CO)N1C[C@H](C)[C@H](CN(C)Cc2ccncc2)Oc2ccc(NC(=O)Cc3cn(C)c4ccccc34)cc2C1=O | 13[16.7 µM]
C[C@@H]1CN([C@@H](C)CO)C(=O)c2ccccc2-c2ccccc2CO[C@@H]1CN(C)C(=O)c1ccc(F)cc1 | -4[16.7 µM]
O=C(C[C@@H]1C[C@H]2c3cc(NC(=O)c4ccc5c(c4)OCO5)ccc3O[C@H]2[C@@H](CO)O1)NCc1ccc(Oc2ccccc2)cc1 | 41[16.7 µM]
CN1C(=O)c2cc(NC(=O)c3ccc(Cl)cc3)ccc2OC[C@@H]2O[C@@H](CC(=O)O)CC[C@@H]21 | -4[16.7 µM]
CC(C)(C)[S@](=O)N1Cc2cc(C(=O)N3CCc4ccccc4C3)nc(-c3cccc(-c4cncnc4)c3)c2[C@@H]1CCO | 4[16.7 µM]
CCCN1[C@@H]2c3ccc(-c4ccncc4)c(=O)n3C[C@@H]2[C@@H](CO)[C@@H]1C(=O)NCCCN1CCOCC1 | -31[16.7 µM]
CO[C@H]1CC[C@H]2CCN(C)C(=O)CCCN(C)C(=O)c3cc(C#N)ccc3OC[C@@H]1O2 | 8[16.7 µM]
C[C@H](CO)N1C[C@H](C)[C@H](CN(C)C)OCCCC[C@H](C)Oc2ccc(NC(=O)Nc3ccc(F)cc3)cc2C1=O | -18[16.7 µM]
Nc1ccc2ccc(N)cc2c1 | -60
OC[C@@H]1[C@H](c2ccccc2)C2(CN(Cc3ccccc3)C2)N1Cc1ccncc1 | -11[16.7 µM]
CN(C(=O)CSc1ncnc2c(-c3cccs3)nsc12)C1CCCCC1 | 4
Cc1ccccc1S(=O)(=O)N(C)C[C@@H]1OCc2ccccc2-c2ccccc2C(=O)N([C@H](C)CO)C[C@@H]1C | 28[16.7 µM]
O=C(Nc1ccccc1C(=O)NCC1CC1)c1cccs1 | 9
CO[C@H]1CN(C)C(=O)c2cc(NC(=O)C3CCOCC3)ccc2OC[C@H](C)N(C(C)=O)C[C@H]1C | -2[16.7 µM]

# Arranged by the number under Env fusion inh (smallest number first): 3 from the list above
smiles | Env fusion inh
Nc1ccc2ccc(N)cc2c1 | -60
CN(C(=O)CSc1ncnc2c(-c3cccs3)nsc12)C1CCCCC1 | 4
CCc1c(Cc2cccc(F)c2)ncn1CCc1ccccc1OC | 24

# (next part)
smiles | Env fusion inh
COC(=O)[C@]12C[C@H](CC(=O)NCc3ccc(C)o3)C(=O)N(Cc3ccccc3)C1=C[C@H](C(C)C)O[C@@H]2C1CC1 | 18
O=C(C[C@H]1C[C@H]2c3cc(NC(=O)Nc4ccccc4F)ccc3O[C@H]2[C@H](CO)O1)NCc1ccc2c(c1)OCO2 | -2[16.7 µM]
COCC(=O)N1C[C@H](C)[C@H](OC)CN(C)C(=O)c2ccc(NS(C)(=O)=O)cc2OC[C@@H]1C | -5[16.7 µM]
O=C(NC1CCC1)[C@@H]1[C@@H](CO)[C@@H]2Cn3c(ccc(-c4cccc(F)c4)c3=O)[C@H]1N2Cc1cocn1 | 17[16.7 µM]
CO[C@H]1CC[C@H]2CCN(C)C(=O)[C@H](C)[C@@H](OC)CN(C)C(=O)c3cccc(C#N)c3OC[C@@H]1O2 | -6[16.7 µM]
COc1ccc(S(=O)(=O)N(C)C[C@H]2Oc3ncc(/C=C/c4ccccc4)cc3C(=O)N([C@H](C)CO)C[C@@H]2C)cc1 | 24[16.7 µM]
O=C(NC(CC1=CCCCC1)c1ccccc1)C(F)(F)F (stereo unspecified) | 4
CC(=O)N1[C@@H]2c3ccc(-c4cccc(F)c4)c(=O)n3C[C@@H]2[C@@H](CO)[C@@H]1C(=O)NCCCN(C)C | 7[16.7 µM]
O=C(Cc1ccc(NC(=O)C2CCCN(C(=O)c3ccccc3)C2)cc1)Nc1cccc(C(=O)N2CCCC2)c1 (stereo unspecified) | -15
O=C(C[C@@H]1C[C@@H]2c3cc(NC(=O)Cc4ccncc4)ccc3O[C@@H]2[C@@H](CO)O1)NCc1cccc(F)c1 | -4[16.7 µM]
CCNC(=O)N(C)[C@H]1C[C@@H](c2ccccc2)N(C(C)=O)C[C@H]1CO | 0
COC(=O)C[C@@H]1C[C@@H]2c3cc(NC(=O)C4CCOCC4)ccc3O[C@@H]2[C@H](CO)O1 | -3[16.7 µM]
CCCNC(=O)C[C@H]1C[C@@H]2c3cc(NC(=O)Nc4ccccc4F)ccc3O[C@@H]2[C@@H](CO)O1 | -1[16.7 µM]
O=C(C[C@H]1CC[C@@H]2NC[C@@H](O)COC[C@H]2O1)NCc1ccc2c(c1)OCO2 | -12[16.7 µM]
C[C@H](CO)N1C[C@H](C)[C@H](CN(C)C)Oc2ccc(NC(=O)Nc3ccccc3)cc2C1=O | 9[16.7 µM]
CCCNC(=O)Nc1ccc2c(c1)OC[C@H](C)N(CCC(F)(F)F)C[C@@H](C)[C@@H](OC)CN(C)C2=O | -43[16.7 µM]
CCCNC(=O)N1C[C@@H](C)[C@@H](OC)CN(C)C(=O)c2cc(NS(C)(=O)=O)ccc2OC[C@H]1C | 13[16.7 µM]
CC(=O)N1[C@@H]2c3cccc(=O)n3C[C@H]1[C@H](CO)[C@H]2C(=O)NC1CCCC1 | 3[16.7 µM]
O=C(C[C@@H]1C[C@@H]2c3cc(NC(=O)Nc4ccc(C(F)(F)F)cc4)ccc3O[C@@H]2[C@H](CO)O1)NCc1cccnc1 | 13[16.7 µM]
O=C(CCc1c[nH]c2ccccc12)Nc1ccc(Nc2cccnc2)c(Br)c1 | -10
COC(=O)[C@@H]1[C@@H](CO)[C@@H]2Cn3c(ccc(-c4ccccc4OC)c3=O)[C@@H]2N1C(=O)c1cnccn1 | 3[16.7 µM]
CC=Cc1ccc2n(c1=O)C[C@H]1[C@H](CO)[C@@H](C(=O)N3CCCCC3)[C@@H]2N1C(=O)C1CCC1 (mixture of isomers) | -18[16.7 µM]
C[C@@H]1CN([C@H](C)CO)S(=O)(=O)c2ccc(C#CC3CCCC3)cc2O[C@H]1CN(C)C(=O)c1cccc(F)c1 | 44[16.7 µM]
O=C(C[C@@H]1CC[C@H]2[C@@H](COC[C@@H](O)CN2C(=O)c2ccc3c(c2)OCO3)O1)NCCN1CCCCC1 | 14[16.7 µM]
C[C@@H]1CN([C@H](C)CO)C(=O)c2cc(C#CC3CC3)cnc2O[C@H]1CN(C)C(=O)c1ccncc1 | -16[16.7 µM]
COC(=O)[C@]1(Cc2ccccc2)NC=C(C(=O)c2ccccc2)[C@@H]1c1cccs1 | -17
CCCCOCC1CN(CCCC)S(=O)(=O)c2c(cccc2N(C)S(=O)(=O)c2ccc(C)cc2)O1 (stereo unspecified) | -34
CC(C)NC(=O)N(C)C[C@@H]1OCCCC[C@@H](C)Oc2ccc(NC(=O)CCC(F)(F)F)cc2C(=O)N([C@@H](C)CO)C[C@H]1C | 21[16.7 µM]
CO[C@H]1CN(C)C(=O)c2cc(NC(=O)c3cccc(F)c3)ccc2OC[C@H](C)N(C)C[C@H]1C | -6[16.7 µM]
C[C@H](CO)N1C[C@H](C)[C@@H](CN(C)Cc2ccc(Cl)c(Cl)c2)Oc2ccc(NC(=O)c3ccncc3)cc2CC1=O | 8[16.7 µM]

> COC(=O)c1cccc(-n2c(C)cc(O)cc2=O)c1
  Env fusion inh: 20
> C[C@@H]1CN([C@@H](C)CO)S(=O)(=O)c2ccc(C#CC3CCCC3)cc2O[C@@H]1CN(C)C(=O)Nc1cc(F)ccc1F
  Env fusion inh: 16[16.7 µM]
> CO[C@H]1CN(C)C(=O)c2ccc(NC(=O)Nc3c(C)noc3C)cc2OC[C@@H](C)NC[C@@H]1C
  Env fusion inh: -33[16.7 µM]
> C[C@@H]1CN([C@@H](C)CO)C(=O)Cc2cc(NC(=O)CCN3CCOCC3)ccc2O[C@H]1CN(C)Cc1ccc2c(c1)OCO2
  Env fusion inh: -11[16.7 µM]
> CN(C)C(=O)c1cc2c(c(-c3cccc(-c4ccc(F)cc4)c3)n1)[C@@H](CCO)N([S@](=O)C(C)(C)C)C2
  Env fusion inh: 5[16.7 µM]
> C[C@H]1CCCCO[C@@H](CN(C)CC2CC2)[C@@H](C)CN([C@@H](C)CO)C(=O)c2cc(NC(=O)c3ccccc3)ccc2O1
  Env fusion inh: 24[16.7 µM]
> CC(C)NC(=O)Nc1ccc2c(c1)C(=O)N([C@@H](C)CO)C[C@@H](C)[C@H](CN(C)C(=O)NC1CCCCC1)O2
  Env fusion inh: -8[16.7 µM]
> CNC[C@H]1OCCCC[C@H](C)Oc2ccc(NC(=O)Nc3ccc(C(F)(F)F)cc3)cc2C(=O)N([C@H](C)CO)C[C@@H]1C
  Env fusion inh: -5[16.7 µM]
> Nc1[nH]c(=O)ncc1-c1ccc([N+](=O)[O-])cc1
  Env fusion inh: -10
> CCNC(=O)[C@@H]1[C@@H](CO)[C@@H]2Cn3c(ccc(-c4ccccc4)c3=O)[C@@H]2N1CC
  Env fusion inh: -113[16.7 µM]
> CCC(=O)Nc1ccc2c(c1)OC[C@H](C)N(CCc1ccccc1)C[C@H](C)[C@H](OC)CN(C)C2=O
  Env fusion inh: -7[16.7 µM]
> C[C@@H]1CN([C@@H](C)CO)C(=O)c2cccc(NC(=O)c3cnccn3)c2O[C@H]1CN(C)S(=O)(=O)c1ccc(F)cc1
  Env fusion inh: -10[16.7 µM]
> C[C@H](CO)N1C[C@H](C)[C@H](CN(C)C(=O)c2ccccc2)OCCCC[C@H](C)Oc2ccc(NC(=O)c3ccccc3)cc2C1=O
  Env fusion inh: -34[16.7 µM]
> C[C@H](CO)N1C[C@H](C)[C@@H](CN(C)C(=O)Cc2ccccn2)Oc2ncc(-c3ccc(F)cc3)cc2C1=O
  Env fusion inh: 3[16.7 µM]
> CCCNC(=O)N1C[C@@H](O)COC[C@@H]2O[C@H](CC(=O)N[C@@H]3CCN(Cc4ccccc4)C3)CC[C@H]21
  Env fusion inh: -18[16.7 µM]
> C[C@@H]1CCCCO[C@H](CN(C)Cc2ccc(Cl)c(Cl)c2)[C@@H](C)CN([C@@H](C)CO)C(=O)c2cc(N(C)C)ccc2O1
  Env fusion inh: -20[16.7 µM]
> COC(=O)[C@@H]1[C@@H](CO)[C@@H]2Cn3c(ccc(-c4ccc(F)cc4)c3=O)[C@@H]2N1C(=O)C1CCC1
  Env fusion inh: 7[16.7 µM]
> CN1OC[C@@H]2CN[C@H](c3ccc(N4CCCCC4)cc3)C[C@@H]21
  Env fusion inh: -19
> COCCNC(=O)C[C@@H]1CC[C@H]2[C@H](COc3ccc(NC(=O)Cc4ccccc4)cc3C(=O)N2C)O1
  Env fusion inh: 7[16.7 µM]
> CO[C@H]1CC[C@H]2CCOc3ccc(C#N)cc3C(=O)N(C)C[C@@H](OC)[C@H](C)C(=O)N(C)C[C@H]1O2
  Env fusion inh: 12[16.7 µM]
> COc1ccc(CN(C)C[C@@H]2OCCCC[C@@H](C)Oc3ccc(NS(C)(=O)=O)cc3C(=O)N([C@H](C)CO)C[C@H]2C)cc1
  Env fusion inh: -2[16.7 µM]
> CC(C)NC(=O)Nc1ccc2c(c1)CC(=O)N([C@@H](C)CO)C[C@@H](C)[C@H](CN(C)Cc1ccc3c(c1)OCO3)O2
  Env fusion inh: -1[16.7 µM]

# A few values from the entries so far:
# CN(C)C(=O)c1cc2c(c(-c3cccc(-c4ccc(F)cc4)c3)n1)[C@@H](CCO)N([S@](=O)C(C)(C)C)C2 – Env fusion inh: 5[16.7 µM]
# COC(=O)c1cccc(-n2c(C)cc(O)cc2=O)c1 – Env fusion inh: 20
# CCCNC(=O)N1C[C@@H](O)COC[C@@H]2O[C@H](CC(=O)N[C@@H]3CCN(Cc4ccccc4)C3)CC[C@H]21 – Env fusion inh: -18[16.7 µM]

# The list is partial, so the mix of outcomes need not match the whole.
